Bioassay records (PubChem)
Vaccinia Venus: inhibitors of vaccinia virus (Venus reporter). hit rate 0.46% among 330,000. Vaccinia virus Venus reporter expression, fluorescence. Potency, µM (top dose mostly 36.5 µM), for the others: at the highest dose activity change, negative = inhibition, most hits filed as inhibitors; active means well fitted inhibition curve with a large enough effect; inconclusive means small, poorly fitted or top-dose-only effect; inactive means no such curve, though single readings can be large or run the other way; tested in A549 cells; note: nearly all actives have a fitted effect of over 30% in size; inactives centre near -10
VACV mCherry inh: inhibitors of vaccinia virus infection (mCherry reporter signal). Vaccinia virus mCherry reporter infection, fluorescence; about a quarter of the inactives have no number. Potency, µM (highest dose often 36.5 µM), for the others: top-dose activity change, negative = inhibition, most hits filed as inhibitors. hit rate 0.63% among 310,000. AID 720579; active = well fitted inhibition curve with a large enough effect; inconclusive = small, poorly fitted or top-dose-only effect; inactive = no such curve, though single readings can be large or run the other way; tested in A549 cells; note: nearly all actives have a fitted effect of over 35% in size; inactives centre near -10
The depositor's hits bear a star; i = inactive; ? = inconclusive; . = not tested or not shown; [ ] = another dose, or the depositor's remark. % is set by controls: 0 for no effect and ±100 for the full control effect; potency is the fitted concentration of half-maximal effect.

Under each structure – Vaccinia Venus	VACV mCherry inh
C=CCOc1ccc(CNc2ccc3[nH]c(=O)[nH]c3c2)cc1
  -12.0%	-25.1%
C/C(=N\NC(=O)CSCc1ccc([N+](=O)[O-])cc1)c1ccccc1O
  -26.9%	-17.4%
O=C(COC(=O)c1ccc(Cl)nc1)NC(=O)c1ccc(OC(F)F)cc1
  -3.5%	-19.4%
CC(C(=O)N1CCN(C(=O)c2ccco2)CC1)n1sc2ccccc2c1=O (configuration not stated)
  3.7%[7.34 µM]	-4.3%[7.34 µM]
CC(C)c1ccc(CC(NC(=O)c2ccccc2)C(=O)NCC(=O)O)cc1 (configuration not stated)
  -5.0%	i
CCN(CC(=O)Nc1ccc(NC(C)=O)cc1)C(=O)c1cccc(S(=O)(=O)N2CCCC2)c1
  2.2%	-7.8%
O=C1CCCCC1(c1ccccc1)c1ccccc1
  -10.3%	-20.1%
O=C(COC(=O)Cc1c[nH]c2ccccc12)NC1CCS(=O)(=O)C1 (configuration not stated)
  -10.1%	-0.9%
COc1ccc(NC(=O)C2C3C=CC(C3)C2C(=O)O)cc1 (configuration not stated)
  -0.5%	-13.1%
CCN(CC)S(=O)(=O)c1ccc(N(C)C)c(NC(=O)C2CCCC2)c1
  -15.1%	i
CCOC(=O)C1=C(COC(=O)c2cccc(NC(C)=O)c2)NC(=O)NC1C (configuration not stated)
  -9.8%	-19.8%
COc1ccc(S(=O)(=O)N2CCN(C(=O)NC3CCCCC3)CC2)cc1OC
  -6.9%	i
CN(C(=S)NC(=O)CCCOc1ccc(Cl)cc1Cl)c1ccccc1
  -21.1%	-4.7%
CCc1ccc(/C=C2\SC(=S)N(CCCC(=O)N3CCN(C)CC3)C2=O)cc1
  28.2µM*	?
CCN(CC)C(=O)Cn1cc(C(=O)C(=O)Nc2ccc3c(c2)OCO3)c2ccccc21
  -7.6%	-2.3%
COc1ccc(CN(C)C[C@@H]2OCc3cnnn3CCCC(=O)N([C@H](C)CO)C[C@H]2C)cc1
  -10.8%	?
CC(C)(C)NC(=O)CN(C(=O)C(=O)Nc1ccc2c(c1)OCCO2)C1CCCC1
  -3.0%	-4.7%
Cc1nnsc1-c1nnc(SCC(=O)c2ccc(F)cc2)n1C1CC1
  -9.4%	-13.1%
COc1cc(-c2nc3c4ccccc4nc(=S)n3[nH]2)cc(OC)c1OC
  -4.3%	-5.5%
O=C(O)C1(P(=O)(c2ccc(Cl)cc2)c2ccc(Cl)cc2)CC1
  -4.4%	i

Additional entries:
Under each structure – Vaccinia Venus	VACV mCherry inh
Cc1ccc(NC(=O)CCN2C(=O)NC3(CCCC3)C2=O)cc1
  -8.1%	-23.2%
COCCOC(=O)C1=C(C)OC(N)=C(C#N)C1c1ccc2c(c1)OCO2 (configuration not stated)
  0.5%	.
Cc1ccn2c(C(=O)NN=C3CCCCCCC3)c(C)nc2c1
  -1.3%	-0.2%
COc1cc(S(=O)(=O)N2CCC(C(N)=O)CC2)c(C)cc1C
  -12.5%	-0.9%
Cc1ccc(C(=O)N2CCN(c3ccc(NC(=O)Cc4ccccc4)cc3)CC2)cc1
  -18.8%	-2.9%
CCn1c(=O)c2sccc2n2c(CCC(=O)N3CCN(c4ccc(C(C)=O)cc4)CC3)nnc12
  0.6%	-0.1%
CCOc1ccc(C2c3[nH]c4ccccc4c3CCN2C(=O)CCC2CCCC2)cc1 (configuration not stated)
  1.8%	-15.1%
CC1=CC(C)(C)Nc2ccc(Cc3ccc4c(c3)C(C)=CC(C)(C)N4)cc21
  -20.4%	-15.3%
CCc1cccc2c(/C=N/NC(=O)c3cccc(S(=O)(=O)Nc4ccccc4Cl)c3)c[nH]c12
  -14.1%	-17.9%
CCOC(=O)Cc1csc(NC(=S)NC(=O)c2ccccc2Br)n1
  -9.2%	-21.5%
Cc1ccn2c(NC(C)(C)C)c(-c3cccs3)nc2c1
  -13.9%	-19.4%
Cc1cnc(C(=O)OCC(=O)c2c(N)n(CC(C)C)c(=O)n(C)c2=O)cn1
  -3.4%	i
CCC(C(=O)NCc1ccccc1)n1nc(C)c2sc3ccccc3c2c1=O (configuration not stated)
  -6.8%	-12.2%
O=C(CCNS(=O)(=O)c1ccc(Cl)cc1)OCC(=O)N1CCN(C(=O)c2ccco2)CC1
  -5.9%	-12.4%
O=C(CSc1oc(-c2ccco2)nc1S(=O)(=O)c1ccc(Cl)cc1)Nc1ccc(F)cc1
  -22.7%	-8.2%
COc1ccccc1C(=O)N1c2ccccc2C(C)(c2ccc(Cl)cc2)CC1(C)C (configuration not stated)
  -25.3%	-26.4%
CCOCCCNC(=O)c1cc(C)nn1-c1ccccc1
  -5.0%	i
CCN(CC)S(=O)(=O)c1ccc(N2CCCC2)c(C(=O)OCC(=O)N2CCCC2)c1
  -6.5%	i
O=S(=O)(c1ccc2c(c1)N(Cc1ccc(Cl)cc1)C1CCCN21)N1CCOCC1 (configuration not stated)
  -16.1%	.
O=C(c1cccs1)N1CCN(S(=O)(=O)N2CCCCC2)CC1
  3.4%	.

Next section:
Under each structure – Vaccinia Venus	VACV mCherry inh
COc1ccc(-c2nc3sc(CCNC(=O)C(=O)Nc4cc(C)cc(C)c4)c(C)n3n2)cc1
  -2.0%	i
CCCN1C(=O)C2C(C(=O)Nc3cccc(OC)c3)C3C=CC2(O3)C1C(=O)NC1CCCCC1 (configuration not stated)
  -12.9%	-25.0%
Cc1ccc2c(c1)C1CN(C)CCC1N2C(=O)Cn1nnc(-c2ccccc2F)n1 (configuration not stated)
  -11.1%	-2.3%
COC(=O)c1ccc(N2C(=O)Cc3cc(OC)c(OC)cc3C2c2ccc(F)cc2)cc1 (configuration not stated)
  10.0%	3.0%
O=S(=O)(NCCSc1ccc(Cl)cc1)c1ccc2c(c1)OCCO2
  -6.0%	-18.9%
COc1ccc(C(=O)Nc2cc(C)nn2-c2cccc(F)c2)cc1
  2.2%	-6.0%
COc1nc(NC(C)(C)C)nc(Oc2ccc(=O)n(C)n2)n1
  -8.4%	i
CCc1ccccc1NC(=O)C1CCCN(C(=O)c2cnn(-c3ccccc3)c2-n2cccc2)C1 (configuration not stated)
  -6.3%	-9.8%
COC(=O)c1sccc1NC(=O)c1ccccc1F
  -8.4%	i
CCn1c(=O)sc2cc(NC(=O)c3cccc(OC)c3)ccc21
  0.1%	-1.6%
COC(=O)c1csc(S(=O)(=O)N2CCOCC2)c1OC
  -2.8%	-9.5%
CC(C)C1C(=O)Nc2ccc(S(=O)(=O)NCc3ccc(Cl)cc3)cc21 (configuration not stated)
  -13.5%	-15.4%
O=C(c1ccc(Cn2c(=S)[nH]c3cc4c(cc3c2=O)OCO4)cc1)N1CCN(c2ccccc2)CC1
  -9.6%	-7.0%
COc1ccc2nc(NC(=O)c3ccc(S(=O)(=O)N4CCCC(C)C4)cc3)sc2c1 (configuration not stated)
  -13.0%	-12.3%
COCCCNCCOc1ccccc1-c1ccccc1
  -10.3%	i
C/C(=N/NS(=O)(=O)c1ccc(Cl)cc1)c1cccc(NC(=O)c2ccncc2)c1
  -9.4%	-17.0%
O=C(Nc1cc2ccccc2oc1=O)C1CCCCC1
  -9.1%	-14.7%
CCOC(=O)N1CCN(C(=O)c2ccc3nc4ccsc4c(=O)n3c2)CC1
  -4.3%	-6.1%
CC(=O)c1ccc(N2CCN(S(=O)(=O)c3cc(-c4noc(C)n4)ccc3C)CC2)cc1
  -16.7%	-18.4%
CCOCc1nc(N)nc(N)c1-c1cccc(Cl)c1
  -6.8%	i

Other structures:
structure | Vaccinia Venus | VACV mCherry inh
COC(=O)c1ccccc1NC(=O)Cn1ccnc1 | -9.5% | -17.4%
COc1ccc(C(=O)CCC(=O)Nc2ccc(F)cc2F)cc1 | -0.8% | 6.1%
O=C(NCCc1c[nH]c2ccccc12)C(=O)NCC1OCCCN1S(=O)(=O)c1cc(F)ccc1F (configuration not stated) | -4.5% | -10.7%
CCCOC1OC(=O)c2c1ccc(OC)c2OC (configuration not stated) | -6.4% | i
COc1cc2ccccc2cc1C(=O)N1CCN(C)CC1 | 1.4% | -0.6%
CCCCc1cc2c(cn1)=C(OC(=O)c1cnc3ccccc3n1)C(C)(OC(=O)CC)C(=O)C=2 (configuration not stated) | 17.2% | ?
CC1CCCCN1C(=O)C(Cc1ccccc1)N1C(=O)C2CCCCC2C1=O (configuration not stated) | -1.6% | -12.3%
CCC(=O)N(Cc1ccco1)C1CC(=O)N(c2ccccc2)C1=O (configuration not stated) | -13.1% | i
CCOC(=O)N1CCN(S(=O)(=O)c2ccc3c(c2)NC(=O)CO3)CC1 | 10.5% | -11.8%
Cc1ccc2c(c1)COc1c3ccc(C(=O)N4CCOCC4)cc3nn1-2 | ? | -17.3%
COc1ccc(C(=O)N2CCC(C(=O)N3CCN(c4ccccc4)CC3)CC2)cc1 | -16.5% | -17.5%
CCS(=O)(=O)N1CC(=O)N(c2ccc(Cl)cc2)C(C)(C(=O)NC2CCCCC2)C1 (configuration not stated) | -7.4% | -8.2%

Compounds from the list above containing two or more sulfur atoms, in the order listed:
structure | Vaccinia Venus | VACV mCherry inh
CCc1ccc(/C=C2\SC(=S)N(CCCC(=O)N3CCN(C)CC3)C2=O)cc1 | 28.2µM* | ?
Cc1nnsc1-c1nnc(SCC(=O)c2ccc(F)cc2)n1C1CC1 | -9.4% | -13.1%
CCOC(=O)Cc1csc(NC(=S)NC(=O)c2ccccc2Br)n1 | -9.2% | -21.5%
O=C(CSc1oc(-c2ccco2)nc1S(=O)(=O)c1ccc(Cl)cc1)Nc1ccc(F)cc1 | -22.7% | -8.2%
O=C(c1cccs1)N1CCN(S(=O)(=O)N2CCCCC2)CC1 | 3.4% | .
O=S(=O)(NCCSc1ccc(Cl)cc1)c1ccc2c(c1)OCCO2 | -6.0% | -18.9%
COC(=O)c1csc(S(=O)(=O)N2CCOCC2)c1OC | -2.8% | -9.5%
COc1ccc2nc(NC(=O)c3ccc(S(=O)(=O)N4CCCC(C)C4)cc3)sc2c1 (configuration not stated) | -13.0% | -12.3%

(further entries)
structure | Vaccinia Venus | VACV mCherry inh
COc1cc(Cl)c(C)cc1NC(=O)c1ccc(CN2C(=O)CCn3nc(C)cc32)cc1 | -7.7% | -9.7%
Cc1ccc2cc(CCNC(=O)CCCc3ccccc3)c(=O)[nH]c2c1C | -9.0% | -3.5%
NC(=O)[C@@H]1CCCNc2c(F)cc([N+](=O)[O-])cc2C(=O)N[C@@H](CO)C(=O)N[C@@H](Cc2ccc(O)cc2)C(=O)N1 | -9.7% | i
CN(CCC#N)C(=O)COC(=O)C1c2ccccc2Oc2ccccc21 | -13.9% | -25.2%
O=C(Nc1ccc(F)cc1)c1cccc(N2C(=O)c3ccccc3C2=O)c1 | -2.8% | -7.1%
CN(Cc1ccccc1)C(=O)COC(=O)C1CCN(S(=O)(=O)c2ccc3c(c2)OCCO3)CC1 | -3.3% | -4.8%
CCOC(=O)Cc1ccc(NC(=O)Nc2cc3c(cc2N2CCCCC2)n(C)c(=O)n3C)cc1 | 12.8% | 11.8%
COc1cccc(N2CC(NC(=O)c3cc(Cl)ccc3OC)CC2=O)c1 (configuration not stated) | -1.7%[7.34 µM] | -4.8%[7.34 µM]
Nc1ccn(C2CCCO2)c(=O)n1 (configuration not stated) | -18.6% | -12.5%
COc1cc(O)c2c(=O)c3c(O)c(O)ccc3oc2c1OC | -23.7% | -26.3%
CC(=O)c1cccc(NC(=S)NC(=O)Cc2ccccc2)c1 | -7.4% | -8.3%
CC1CCCC(C)N1CCCNC(=O)C(=O)Nc1ccc2nc3n(c(=O)c2c1)CCCCC3 (configuration not stated) | 6.7%[7.34 µM] | -11.1%[7.34 µM]

Other structures
structure | Vaccinia Venus | VACV mCherry inh
CCC[C@@H]1C[C@@]1(CCC)[C@@H](NP(=O)(c1ccccc1)c1ccccc1)c1ccc(C(=O)OC)cc1 | ? | ?
Cc1ccc(NC(=O)Cn2cnc3c(oc4ccccc43)c2=O)cc1 | -12.4% | -7.8%
CCCC1C(=O)Nc2ccccc2N1C(=O)c1ccc(C(C)(C)C)cc1 (configuration not stated) | -9.8% | 13.7%
Cc1ccc2c(c1)C(O)(c1c(C)[nH]c3ccccc13)C(=O)N2 (configuration not stated) | -14.6% | i
Cc1ccccc1Cn1nnc(-c2ccc3c(c2)OCO3)n1 | -9.8% | .
CSc1ccc(C2c3[nH]c4ccccc4c3CCN2C(=O)c2ccnn2C)cc1 (configuration not stated) | -14.8% | ?
CCN(CC)S(=O)(=O)c1ccc(N2CCOCC2)c(NC(=O)c2cc3ccccc3o2)c1 | -25.4% | i
O=c1[nH]c(Nc2nc3ccccc3o2)nc2c1CCCC2 | ? | ?
N/C(=N\OC(=O)C1CCCCC1)c1ccc(Br)cc1 | -5.6% | -4.0%
O=C(COC(=O)CNC(=O)c1ccc(Cl)cc1)Nc1ccc(Cl)cc1C(F)(F)F | -12.9% | -6.7%
Cc1nc(Oc2ccc(F)cc2Cl)c2oc3ccccc3c2n1 | -18.6% | i
CCOc1ccc(/C=C/c2nc(C#N)c(NC(C)c3ccccc3)o2)cc1 (configuration not stated) | -23.3% | -17.5%
COc1ccc(S(=O)(=O)N2CCCOC2CNC(=O)C(=O)NCCc2ccco2)cc1 (configuration not stated) | -10.2% | -11.4%
Cc1ccc(CN2CCN(Cc3cccc(-n4cccn4)c3)CC2CCO)cc1 (configuration not stated) | -10.9% | -4.0%
C[C@H](NC(=O)[C@@H]1CCCN1C(=O)[C@@H]1CCCN1C(=O)c1cccs1)c1ccccc1 | 1.0% | 18.2%
